Bioassay records: PubChem, Broad Institute
Tg IFNy HTS: inhibitors of Toxoplasma gondii growth with IFN-gamma; Toxoplasma gondii growth in IFN-gamma-treated host cells; active compounds read low; reference of the scale not given here; activity change, negative = inhibition, %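 (about 20 µM by stock and volumes)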; 3.8% of 69,000 active; AID 1259416;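 active = below -70%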;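 also: host cells are HeLa cells infected with Toxoplasma gondii; parasite growth read as luciferase light; one replicate is shown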
* hit, by the source's call; i = inactive; & = joins results of further samples. A portion of the library, so the mix of outcomes need not match the whole.

Sample of the layout:
SMILES | Tg IFNy HTS
COC1CN(Cc2ccc(-c3ccccc3)cc2)CC(=O)N(Cc2cccnc2)C1 (stereo not given) | 8
O=C(c1cn[nH]n1)N1CCOc2ccc(CO)cc2C1 | -48
COc1ccc(CN2C3(CCN(C(=O)C4(C)CC4)C3)c3ccccc3S2(=O)=O)cc1 (stereo not given) | -3

The listing, from the start:
SMILES | Tg IFNy HTS
COC1CN(Cc2ccc(-c3ccccc3)cc2)CC(=O)N(Cc2cccnc2)C1 (stereo not given) | 8
O=C(c1cn[nH]n1)N1CCOc2ccc(CO)cc2C1 | -48
COc1ccc(CN2C3(CCN(C(=O)C4(C)CC4)C3)c3ccccc3S2(=O)=O)cc1 (stereo not given) | -3
CC(=O)N1CC[C@]2(CCC[C@@H](CNC(=O)c3cccn3C)O2)C1 | -4
Cc1ccc(C(=O)NCCNC(=O)c2ccc(C)nc2)cn1 | 19
CN(Cc1ccno1)C(=O)c1csc(Cc2ccccc2)n1 | 7
CC(C)[C@@H]1C/C=C\C[C@@H](c2ccc(F)cc2)NC(=O)[C@H](C)CC(=O)N1 | 11
Cc1noc(C)c1NC(=O)Nc1ccc2c(c1)C(=O)N(C)[C@H]1CC[C@H](CC(=O)Nc3ccc4c(c3)CCCC4)O[C@@H]1CO2 | -4
Cc1nc(-c2ccc(F)cc2)sc1-c1ccc(SCCN2CCCCCC2)nn1 | -49
Cc1cc(C(=O)O)c(C)n1Cc1cccs1 | -20
Cc1ccnc(-n2c(CCCN3C(=O)c4ccccc4C3=O)nc3ccccc3c2=O)c1 | 2
O=C1N(CCCc2ccccc2)CCCC1(O)CNC1CCC(O)CC1 (stereo not given) | -4
CCc1ccc(CN(C)Cc2nc(-c3cccc(Cl)c3)no2)cc1 | 6
Cn1c(=O)c(-c2nc(-c3ccccc3Cl)no2)c(O)c2ccccc21 | 39
Cc1ccc(-c2nc(C)c(CCNC(=O)C(=O)Nc3ccc(F)c(Cl)c3)s2)cc1 | 18
Cc1ccc(C)c(C(=O)Nc2ccc3c(c2)CCC(=O)N3)c1 | 8
O=C(c1cnccn1)N1CCCC2(CCN(Cc3ccncc3)C2)C1 (stereo not given) | 1
Cc1ccc(C(=O)NCC(=O)OCC(=O)c2ccc(OCc3ccccc3)cc2)cc1 | 91
Cc1cnc(N2C[C@@H](NC(=O)c3cscn3)[C@@H]3COC[C@@H]32)nc1 | -4
Cc1ccc(NC(=O)CN2C(=O)CCc3cc(S(=O)(=O)N4CCC(C)CC4)ccc32)cc1F | -47
CC(C)(C)c1cn(C2CCN(C(=O)c3cnc4ccccc4n3)CC2)nn1 | -2
Fc1ccc(-n2cc(CNCCc3cn[nH]c3)c(-c3ccccc3Cl)n2)cc1 | 11
N#CC1(C(=O)N2C[C@H]3CN(Cc4ccncc4)C(=O)[C@@H]3C2)CC1 | 1
O=C(C[C@@H]1C=C[C@@H](NC(=O)Cc2cccnc2)[C@H](CO)O1)NCc1ccc2c(c1)OCO2 | 2
c1ccc(Cc2cn[nH]c2C2CCNCC2)cc1 | -5
CCOCCOC(=O)COc1ccc2c(=O)c(Oc3cccc(C)c3)coc2c1 | -24
COc1ccc(OCC(=O)N2c3ccc(C)cc3C3CN(C)CCC32)cc1 (stereo not given) | 42
Cc1cc(/C=N/O)c(C)n1-c1ccc(Br)cc1 | -3
Cc1cc(C)cc(NC(=O)CC(=O)N[C@H]2COC[C@@H]2N2CCCC2)c1 | 3
OC(CSc1cccs1)CN1CCN(C(c2ccccc2)c2ccccc2)CC1 (stereo not given) | -94*
Cn1cc(C[C@H]2[C@H](N3CCOCC3)CCN2Cc2ccco2)cn1 | -51
CCCc1nc(C)c(Cn2cnc3sc4c(c3c2=O)CCNC4)s1 | 24
COc1ccc(CN2C[C@@H]3CCN(C(=O)c4ccn[nH]4)CC[C@H]3S2(=O)=O)cc1 | -2
CS(=O)(=O)N1CCCn2cnc(COCC3CC3)c2C1 | -43
N#CCCC1CCCCCCCCCCC1=O (stereo not given) | 22
CSc1ncc(C(=O)N(CCO)CC2CC3C=CC2C3)cn1 (stereo not given) | 81
CCN1C(=O)N(Cc2cccc(OC)c2)C(=O)C12CCN(CC1CC=CCC1)CC2 (stereo not given) | -12
NC(=O)CN1CCC=C(C2CCCCN2C(=O)Cc2ccccc2)C1 (stereo not given) | 5
CCn1ccnc1CN1CCC(CNC(=O)c2ncccc2C)C1 (stereo not given) | -3
C[C@H](CO)N1C[C@H](C)[C@@H](CN(C)Cc2cccnc2)Oc2ncc(-c3ccc(C#N)cc3)cc2C1=O | 95
CCc1cnc(N2[C@H](CO)[C@H](c3ccccc3-c3ccccc3C)[C@@H]2C#N)s1 | -2
CN(C)CCN1CCCC12CCCN(C(=O)C1CCCO1)C2 (stereo not given) | 0
O=C(Nc1cccc2c1CCCC2)C1CCN(S(=O)(=O)c2ccc3[nH]c(=O)ccc3c2)CC1 | 122
Cc1ccc(C)c(NC(=O)Cn2c(=O)cc(C(=O)N3CCCCC3)c3ccccc32)c1 | -4
O=C(c1ccncc1)N1CCCC1c1nnn2cc(-c3ccccc3)ccc12 (stereo not given) | 130
COc1ccc(-c2nc(Cc3noc(-c4ccccn4)n3)c(C)o2)cc1 | 46
CC1C(c2ccccc2)O/C(=N\S(=O)(=O)c2ccc(Cl)cc2)N1C (stereo not given) | -11
CCN1C(=O)N(CCCc2cccnc2)C(=O)C12CCN(Cc1cccc(-c3ccccc3C)c1)CC2 | -40
Cc1ccc(C2(O)CCN(Cc3ccc4onc(C)c4c3)CC2)nc1 | -11
CCc1ccc(-c2nccn2CCCN2CCCC(O)C2)nc1 (stereo not given) | 13
O=C(c1ccccc1)N1CCC2(CC1)Nc1cccnc1NC2=NCc1ccccc1 | 86
CNc1ncccc1[C@@H]1C[C@H](NC(=O)c2ccccc2)C[C@H](C(C)C)O1 | -4
O=C(O)CC1CCC2(CC1)CCN(C(=O)CC1CCCC1)CC2 | -65
CCS(=O)(=O)N1CCCC2(CCCN2Cc2ccc(-c3ccccc3)cc2)C1 (stereo not given) | 24
CC(C)N(C[C@@H]1[C@@H](c2ccccc2)[C@@H](CO)N1S(C)(=O)=O)C(=O)CN(C)C | -46
Cc1ncc(-c2onc(C)c2C)c(C2CCCCN2C(=O)c2snnc2C)n1 (stereo not given) | -9
CNc1cc(C2CCN(C(=O)c3cc4cc(C)ccc4o3)CC2)nc(-c2ccncc2)n1 | -38
Cc1ccc(CN2Cc3[nH]nc(C(=O)N(C)Cc4ccccn4)c3C2)o1 | -13
CN1C(=O)C(c2ccccc2)CC12CCN(C(=O)c1cnccn1)CC2 (stereo not given) | 2
CC(C)COc1ccccc1CN(C)C(=O)c1ccoc1 | -14

Quoted at random: 4 entries already listed, in no set order.
SMILES | Tg IFNy HTS
CN1C(=O)C(c2ccccc2)CC12CCN(C(=O)c1cnccn1)CC2 (stereo not given) | 2
CNc1cc(C2CCN(C(=O)c3cc4cc(C)ccc4o3)CC2)nc(-c2ccncc2)n1 | -38
O=C(c1ccccc1)N1CCC2(CC1)Nc1cccnc1NC2=NCc1ccccc1 | 86
CNc1ncccc1[C@@H]1C[C@H](NC(=O)c2ccccc2)C[C@H](C(C)C)O1 | -4

Going on with the list:
SMILES | Tg IFNy HTS
CC(C)CN1CCC(NCc2noc(C3CCCC3)n2)CC1 | -48
CCCN1C(=O)CCc2cc(NC(=O)c3ccc(C)cc3)ccc21 | -47
COc1ccc(S(=O)(=O)Nc2ccc3c(c2)C(=O)N([C@H](C)CO)C[C@H](C)[C@@H](CN(C)Cc2ccc(C(F)(F)F)cc2)OCCCC[C@@H](C)O3)cc1 | -91*
Cc1csc(NC(=O)CCC2CCCCC2)n1 | -44
OCC1(O)CCCN(Cc2nc3ccccc3s2)CC1 (stereo not given) | 25
Cc1ccc(C(=O)Nc2ccc(-c3nc(Cn4nc(C)cc4C)c(C)o3)cc2)cc1 | -55
O=C(NCc1cc(F)cc(F)c1)[C@@H]1[C@@H](CO)[C@@H]2Cn3c(cccc3=O)[C@H]1N2 | 0
COCC(=O)Nc1ccc2c(c1)C(=O)N(C)[C@H]1CC[C@@H](CC(=O)NC3Cc4ccccc4C3)O[C@@H]1CO2 | 5
Clc1ccc2sc(SCc3c(Cl)cccc3Cl)nc2c1 | 52
CCS(=O)(=O)Nc1ccc2c(c1)C(=O)N(C)[C@H]1CC[C@H](CC(=O)N3CCN(C)CC3)O[C@H]1CO2 | -47
Cc1ccc(-c2nc(CN3CCN(C(=O)Nc4ccccc4Cl)CC3)c(C)o2)cc1 | 2
O=c1[nH]c(CNC2CCCC2)nc2ccccc12 | 16
CC(C)(C)c1cc(C(=O)NCc2csc3ccc(Cl)cc23)n(Cc2ccccc2)n1 | -61
Fc1ccc(CN2CCC3(CC2)N=C(C2CC2)NO3)cc1 | 9
CN(C)C(=O)c1ccc(-c2ccc([C@@H]3[C@@H](CO)N4C(=O)CN(C(=O)CC5CC5)C[C@@H]34)cc2)cc1 | -3
Cc1ccc(-c2coc(-c3ccc(NC(=O)c4ccco4)cc3)n2)c(C)c1 | -10
CCNC(=O)[C@@H]1C[C@@H](N)CN1C(=O)c1cccc(-c2cccc(OC)c2)c1 | -6
COCCN(C)C(=O)c1ccc2ccc(N(C)c3ccccc3)n2c1 | -10
CC(=O)N1CC2(CCN(C(=O)c3cccs3)CC2)CC1C(=O)O (stereo not given) | 4
CC(C)(C#CC(O)(c1ccccc1)c1ccccc1)N1CCCCC1 | -49
O=c1ccc2cc(S(=O)(=O)N3CCN(C(c4ccccc4)c4ccccc4)CC3)ccc2[nH]1 | -66
Cc1cccc(-c2nc(Cn3c(=O)c4cccnc4n(-c4ccccc4)c3=O)c(C)o2)c1 | -13
Cn1c(SCC(=O)c2ccc3c(c2)OCCO3)nnc1-c1ccc2ccccc2c1 | -95*
CCn1c(C2CCN(Cc3cccc(OCC(N)=O)c3)CC2)nn(C)c1=O | 3

Single values from above:
Value of CC(C)(C#CC(O)(c1ccccc1)c1ccccc1)N1CCCCC1 under Tg IFNy HTS: -49
Value of Cc1ccc(-c2coc(-c3ccc(NC(=O)c4ccco4)cc3)n2)c(C)c1 under Tg IFNy HTS: -10
Value of CC(C)(C)c1cc(C(=O)NCc2csc3ccc(Cl)cc23)n(Cc2ccccc2)n1 under Tg IFNy HTS: -61
Value of CCNC(=O)[C@@H]1C[C@@H](N)CN1C(=O)c1cccc(-c2cccc(OC)c2)c1 under Tg IFNy HTS: -6

Following part.
SMILES | Tg IFNy HTS
COCc1ncc(CN2CC[C@@H](c3ccc(F)cc3)[C@H](O)C2)cn1 | -3
CC1CCN(c2ncnc3c2cnn3CC(=O)Nc2ccccc2)CC1 | 125
Cc1ccc(S(=O)(=O)Nc2cncc(C(=O)NCC(C)C)c2)cc1 | -17
COc1ccc(N2CC3CCc4ccccc4C3=N2)cc1 (stereo not given) | i
NC1(C(=O)O)CCN(Cc2cnc(C3CCCCC3)nc2)C1 (stereo not given) | -28
CCC(=O)N1[C@H](CO)[C@@H](c2ccccc2)C12CN(C(=O)CN1CCOCC1)C2 | 60
CCc1ccc(NC(=O)N2CC[C@H]3CN(Cc4ccncc4)S(=O)(=O)[C@@H]3CC2)cc1 | 12
Cc1nnc2sc(-c3cccc(NC(=O)c4ccco4)c3)nn12 | 10
COc1cccc(-n2cc(CN(C)Cc3nc4ccccc4[nH]3)cn2)c1 | 7
COc1cccc(C#Cc2ccc3c(c2)O[C@H](CN(C)C(=O)CN2CCOCC2)[C@H](C)CN([C@H](C)CO)S3(=O)=O)c1 | 6
CNC[C@@H]1OCc2cn(nn2)CCCC(=O)N([C@H](C)CO)C[C@@H]1C | -46
COc1ccc(CNc2nc(-c3nnc(-c4cccc(Cl)c4)o3)nc3ccccc23)cc1 | -67
COc1ccccc1-c1noc(C2CCCN2C(=O)Cc2c[nH]c3ccccc23)n1 (stereo not given) | 27
O=C1CCC2(CCN1)CCN(C(=O)Cc1ccc(O)c(Cl)c1)CC2 | 5
CN1CCN(C[C@H]2OC[C@H]3CCN(C(=O)N(C)C)C[C@H]32)CC1 | -42
COc1ccc(-n2c(CCC(=O)O)ccc2-c2ccccc2)cc1 | -3
COc1ccccc1N1CCN(CCCNS(=O)(=O)c2ccc3[nH]c(=O)ccc3c2)CC1 | 3
Cc1cc(N2CCOC(CN)C2)nc(-c2ccccc2)n1 (stereo not given) | -3
C[C@@H]1CN([C@@H](C)CO)C(=O)CCCn2cc(nn2)CO[C@@H]1CN(C)C(=O)c1ccc(N2CCN(C)CC2)cc1 | 197
Fc1ccc(-c2nccn2CCCc2nn[nH]n2)c(Cl)c1 | 0
C=C1C(=O)[C@]23[C@H](O)[C@H]1CC[C@@H]2[C@@]12CO[C@]3(O)C[C@@H]1C(C)(C)CC[C@@H]2O | 10&-70
O=C(C1CCOC1)N1C[C@@H]2OCC(=O)N(Cc3cccc(F)c3)[C@H]2C1 (stereo not given in full) | 5
O=S(=O)(NCCc1csc(-c2ccc(Cl)cc2)n1)c1cc(F)ccc1F | -6
COc1cccc(NC(=O)N[C@H]2C=C[C@H](CC(=O)NCc3ccncn3)O[C@H]2CO)c1 | -14
COc1ccc(C(=O)N2CCC3(CC2)Nc2ccc(C)c(C)c2-n2cccc23)cc1 | 33
OCCn1ccnc1-c1ccc(SC2CCCCC2)o1 | -15
COc1ncccc1C(Cc1ccsc1)NC(=O)CN(C)C1CCS(=O)(=O)C1 (stereo not given) | -15
O=C(c1ccc2[nH]c3c(c2c1)CCCC3)N1CCOC2(CNCCOC2)C1 (stereo not given) | 5
O=C(c1ccc[nH]1)N1CCC2(CCC(=O)N2CC2CC2)CC1 | 0
COc1ccccc1-c1cc(C(=O)Nc2cccc(CCc3ccncc3)c2)[nH]n1 | -92*
O=C1CCC2C(CCN2c2ncccn2)N1c1cccnc1 (stereo not given) | 4
CSc1n[nH]c(N)c1-c1ccccn1 | -2
COCc1nc(N2C[C@@H](C)O[C@@H](C)C2)c2cnn(C)c2n1 | -44
CCc1ccc(NC(=O)Cn2ncc3c(N4CCOCC4)ncnc32)cc1 | 108
CCc1cnc(C)nc1N1CCC2(CCOCC2)CC1 | -3

Four entries from above, as labelled records.
COc1ncccc1C(Cc1ccsc1)NC(=O)CN(C)C1CCS(=O)(=O)C1 (stereo not given)
- Tg IFNy HTS = -15

COc1ccc(C(=O)N2CCC3(CC2)Nc2ccc(C)c(C)c2-n2cccc23)cc1
- Tg IFNy HTS = 33

OCCn1ccnc1-c1ccc(SC2CCCCC2)o1
- Tg IFNy HTS = -15

O=C(c1ccc[nH]1)N1CCC2(CCC(=O)N2CC2CC2)CC1
- Tg IFNy HTS = 0
